Bioassay records from PubChem BioAssay.
Tau fluor cs: counter-screen for tau fibril formation inhibitors | tau K18 P301L Alexa594 fluorescence, heparin fibrillization | Potency, µM (titrated, usually from 57.7 µM), without a hit: top-dose activity change, negative = decrease | hit rate 0.93% among 280,000; further: on the % scale 0 is the no-effect control and ±100 the full control effect; nearly all actives have a fitted effect of over 55% in size
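Human tau K18 P301L (15 uM unlabeled, 0.24 uM Alexa 594-labeled) in 100 mM sodium acetate pH 7 with 20 uM heparin, 6 hr at 37 C. ThT 30 uM added, 1 hr ambient; Alexa 594 FP and total fluorescence read at 555/632 nm.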
Tau fibril FP: tau fibrillization inhibition (FP). hit rate 0.39% among 280,000. AID 1468. P10636. K18 P301L tau heparin fibrillization, Alexa594 FP, 6 h. Potency, µM (series often up to 57.7 µM), inactives show at the highest dose activity, negative = inhibition, usual class: inhibitors; further: on the % scale 0 is the no-effect control and ±100 the full control effect; nearly all actives have a fitted effect of over 55% in size
Target sequence (P10636 561-689 P618L limits assumed): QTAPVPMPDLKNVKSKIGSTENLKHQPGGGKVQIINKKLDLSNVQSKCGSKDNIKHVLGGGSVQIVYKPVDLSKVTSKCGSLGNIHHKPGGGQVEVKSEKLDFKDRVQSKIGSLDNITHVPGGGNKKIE
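Steps: dispense K18 P301L tau (15 uM plus 0.24 uM Alexa 594 tracer, final) in pH 7 sodium acetate; add compound; add heparin (20 uM final); incubate 6 hr, 37 C; add ThT (30 uM final); after 1 hr ambient, read FP.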
RECQ1 helicase: blocks DNA unwinding by human RECQ1. hit rate 0.54% among 240,000. AID 2549. RECQ1 DNA unwinding, red fluorescence kinetic read. P46063. Potency, µM (series often up to 57.3 µM), for inactives: at the top dose activity, negative = inhibition, most hits filed as inhibitors;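 further: plate controls were vehicle for no effect and no enzyme for full effect; nearly all actives have a fitted effect of over 30% in size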
Target sequence (P46063 whole entry, looked up): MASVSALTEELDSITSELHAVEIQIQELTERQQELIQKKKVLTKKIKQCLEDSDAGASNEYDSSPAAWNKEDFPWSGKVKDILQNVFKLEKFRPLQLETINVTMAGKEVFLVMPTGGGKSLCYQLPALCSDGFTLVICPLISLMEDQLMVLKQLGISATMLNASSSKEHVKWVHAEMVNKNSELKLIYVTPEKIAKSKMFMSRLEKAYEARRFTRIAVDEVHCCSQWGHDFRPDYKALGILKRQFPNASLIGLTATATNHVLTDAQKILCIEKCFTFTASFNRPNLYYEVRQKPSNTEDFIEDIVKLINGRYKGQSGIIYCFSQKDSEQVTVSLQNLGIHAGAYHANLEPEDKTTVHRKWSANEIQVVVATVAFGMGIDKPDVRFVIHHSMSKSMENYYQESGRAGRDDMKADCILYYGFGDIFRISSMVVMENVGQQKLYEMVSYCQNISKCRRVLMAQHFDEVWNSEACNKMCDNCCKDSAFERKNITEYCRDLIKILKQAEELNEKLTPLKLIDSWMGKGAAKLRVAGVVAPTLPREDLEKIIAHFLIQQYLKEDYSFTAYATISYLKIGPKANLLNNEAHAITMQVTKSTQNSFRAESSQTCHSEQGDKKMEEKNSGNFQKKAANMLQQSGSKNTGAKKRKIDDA
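RECQ1T1 50 nM; forked duplex (20 bp + 30-nt ss tails) 200 nM, ATP 2 mM final; pH 8.0, 2 mM MgCl2, 2.5 ug/ml poly(dI-dC); 15 min compound preincubation; discontinuous kinetic read over 2 h at RT.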
TRb SRC2 PPI: disrupts binding of human TR beta to SRC2; hit rate 0.065% among 280,000; Potency, µM (top dose mostly 106 µM), inactives show top-dose activity change, negative = inhibition, actives largely listed as inhibitors; TRbeta-SRC2 peptide binding, fluorescence polarization; receptor liganded with 1 µM T3; P10828;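 further: plate controls were bound peptide for no effect and peptide without receptor for full effect; nearly all actives have a fitted effect of over 50% in size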
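Fluorescence polarization of 20 nM Texas Red SRC2 peptide with 0.6 uM human TRb ligand-binding domain, in Tris buffer with 1uM T3 and 5% DMSO. Incubated 5 hr ambient; normalized to unbound and bound controls.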
Tau ThT inhib: blocks human tau fibril formation measured by thioflavin T; recombinant tau K18 P301L (four-repeat tau fragment), heparin-induced fibrillization, ThT fluorescence; Potency, µM (highest dose often 57.4 µM), for the others: top-dose activity, negative = inhibition, actives largely listed as inhibitors; hit rate 2.1% among 270,000; AID 1460; further: on the % scale 0 is the no-effect control and ±100 the full control effect; nearly all actives have a fitted effect of over 55% in size
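Heparin-induced (20 uM) aggregation of recombinant human K18 P301L tau, 15 uM unlabeled with 0.24 uM labeled, pH 7 acetate buffer, 6 hr at 37 C with compound. Fibrils quantified by 30 uM ThT fluorescence after 1 hr ambient incubation.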
HTT ATP protect: cytoprotection in Huntington HTT-Q103 PC12 cell model. AID 1471. PC12 HTT-Q103 induced, cytoprotection, ATP luminescence, 40 h. Potency, µM (titrated, usually from 56.4 µM), inactives show cytoprotection (ATP increase), most hits filed as activators. hit rate 0.14% among 230,000;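 further: % of control where 0% means no effect; nearly all actives have a fitted effect of over 45% in size; toxic huntingtin expression switched on by the ecdysone agonist tebufenozide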
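Stable PC12 Q103-GFP cells in serum-supplemented, phenol red-free DMEM; induction by tebufenozide at 100 nM final; compound dose series; cell viability quantified luminescently from ATP.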
TR SRC2 fluor cs: Texas Red fluorescence interference in TRb-SRC2 counter-screen; TRb/SRC2 Texas Red total fluorescence interference; AID 1479; Potency, µM (titrated, usually from 106 µM), inactives show top-dose fluorescence change, negative = quenching; hit rate 0.29% among 280,000; active means well fitted curve in either direction with a large enough effect; inconclusive means small, poorly fitted or top-dose-only effect; further: on the % scale 0 is the no-effect control and ±100 the full control effect
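Human TRβ ligand-binding domain (0.6 uM) and Texas Red SRC2 peptide (20 nM) in Tris buffer with 1 uM T3 and 5% DMSO were incubated with pinned compound for 5 hr at ambient temperature. Total fluorescence was computed as S + 2P (555/632 nm).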
The depositor's hits bear a star; i = inactive; ? = inconclusive; · = not tested or not shown; [ ] = dose if it differs, or a comment. Unless noted, the call rests on the fitted dose curve; in most records, active means well fitted curve in the direction sought with a large enough effect; inconclusive means small, poorly fitted or top-dose-only effect, or another doubt; inactive means no such curve, though single readings can be large; an effect the other way counts as inactive or inconclusive. Potency means the concentration at half of the fitted maximal effect. These rows are one share of the data; rates above refer to the full screens.

SMILES	Tau fluor cs	Tau fibril FP	RECQ1 helicase	TRb SRC2 PPI	Tau ThT inhib	HTT ATP protect	TR SRC2 fluor cs
CC(=C/C(=O)O)/C(=C/c1ccccc1)C(=O)O	-2%	-5%	-3%	-18%	-5%	4%[10 µM]	-3%
Cc1cc2nc(CN(C)Cc3c(C(=O)N(C)C)nc4ccc(Cl)cn34)[nH]c2cc1C	-6%	-8%	0%	2%	-8%	3%[10 µM]	0%
Cc1ccc(OCc2nnc(SCC(=O)Nc3ccc4c(c3)OCO4)n2C)cc1	-16%	5%	-1%	2%	?	-4%[1.9 µM]	-4%
Cc1ccc(S(=O)(=O)c2cc3c(=O)n4ccccc4nc3n(Cc3ccco3)c2=N)cc1C	-18%	-3%	-8%	-5%	?	-17%	1%
Cc1cc(C)cc(C(=O)NCC(=O)OCC(=O)Nc2cccnc2Cl)c1	-1%	-3%	-1%	3%	-1%	-13%	0%
O=c1[nH]cnc2scc(-c3ccccc3)c12	-10%	0%	i	8%	-6%	8%	1%
COC(=O)C1=NN(c2ccccc2OC)C2C(=O)N(c3ccccc3OC)C(=O)C12 (stereo not drawn)	4%	-6%	1%	-7%	7%	-14%[10 µM]	-1%
COc1ccc(CC(=O)Nc2cc(C)ccn2)cc1	-6%	-15%	-6%	6%	-2%	-24%	2%
COc1ccc(NC(=O)c2cc3c(s2)CCC(C)C3)cc1S(=O)(=O)N1CCOCC1 (stereo not drawn)	-27%	-8%	-11%	4%	-12%	21%[10 µM]	-1%
Cn1c(N)c(C(=O)COC(=O)CCCc2nc3ccccc3s2)c(=O)n(C)c1=O	-11%	-9%	i	-5%	0%	6%	-4%
O=[N+]([O-])c1ccc(Cl)c(/C=N/n2c(COc3ccccc3)n[nH]c2=S)c1	-18%	-9%	1%	-3%	?	·	-3%
CCOC(=O)c1c(C)nc(C)c(C(=O)OCC)c1-c1ccco1	0%	-4%	0%	-4%	0%	9%[10 µM]	-4%
CCOC(=O)CCC(NC(=O)CCCC(=O)NC(CCC(=O)OCC)C(=O)OCC)C(=O)OCC (stereo not drawn)	-1%	10%	1%	6%	3%	-16%[1.9 µM]	3%
CCOC(=O)N1CCC(NS(=O)(=O)c2cc3c(cc2Cl)NC(=O)CO3)CC1	-4%	-1%	-5%	7%	-18%	-9%[0.074 µM]	1%
COC(=O)c1ccc(NC(=O)COC(=O)CSc2nc(C)cc(C)n2)cc1	-5%	0%	-8%	2%	-10%	-1%	-4%
CCOc1ccc(/C=N/n2c(C)nnc2C)cc1OC	6%	0%	i	10%	4%	-12%	0%
CCCC(=O)NCCc1cc(OC)c(OC)cc1Br	7%	-1%	-6%	2%	2%	7%[0.074 µM]	0%
O=C(Nc1ccccc1)N1CCOCC1	3%	1%	-1%	-16%	0%	8%	-2%
COc1ccc(C2C(C(=O)O)c3ccccc3C(=O)N2Cc2ccco2)cc1 (stereo not drawn)	-13%	3%	i	-1%	-10%	-5%[10 µM]	-3%
S=c1[nH]nc(COc2ccccc2)n1/N=C/c1cccs1	2%	6%	7%	2%	4%	-28%[1.9 µM]	7%
O=C(O)c1cc([N+](=O)[O-])ccc1Nc1ccccc1	-4%	13%	-4%	0%	?	?	-1%
Cc1ccc(/C=C2/C(=O)N(c3ccccc3)C(=S)N2C)o1	-11%	?	-2%	1%	?	26%[10 µM]	-2%
CCN1CCCC1CNS(=O)(=O)c1ccc(Cl)c(C(F)(F)F)c1 (stereo not drawn)	-1%	-4%	-12%	6%	5%	·	1%
CC(=C/C(=O)O)/C(=C\c1ccc(Br)o1)C(=O)O	-7%	4%	-9%	-7%	-6%	10%[10 µM]	-4%
CCOC(=O)Cn1c(S(=O)(=O)Cc2cccc(F)c2)nc(-c2ccccc2)c1-c1ccccc1	-16%	12%	-1%	3%	-4%	-27%[10 µM]	1%
CC(C)N(C(=O)c1ccc2nc(-c3ccccc3)c(-c3ccccc3)nc2c1)C(C)C	-11%	-15%	0%	-2%	?	-10%[10 µM]	-7%
O=C(O)c1cc(N/N=C2/CC(c3ccccc3)Oc3ccccc32)ccc1Cl (stereo not drawn)	-24%	-1%	-7%	7%	?	-9%[10 µM]	-2%
COCCNC(=O)c1onc(CCl)c1C(=O)OC	-2%	0%	-5%	-8%	6%	-34%	-5%
O=c1cc(O)c2sc3nc(-c4cccnc4)cc(C(F)(F)F)c3c2[nH]1	-12%	-9%	-10%	-7%	-8%	·	-1%
COC(=O)c1c(CCl)noc1C(=O)NC(C)C	-3%	-6%	-10%	4%	-6%	-18%	-1%

Shown with values under each structure: five of the compounds above.
Results follow in this order: Tau fluor cs	Tau fibril FP	RECQ1 helicase	TRb SRC2 PPI	Tau ThT inhib	HTT ATP protect	TR SRC2 fluor cs
CCOC(=O)Cn1c(S(=O)(=O)Cc2cccc(F)c2)nc(-c2ccccc2)c1-c1ccccc1
→ -16%	12%	-1%	3%	-4%	-27%[10 µM]	1%
CC(C)N(C(=O)c1ccc2nc(-c3ccccc3)c(-c3ccccc3)nc2c1)C(C)C
→ -11%	-15%	0%	-2%	?	-10%[10 µM]	-7%
O=C(O)c1cc(N/N=C2/CC(c3ccccc3)Oc3ccccc32)ccc1Cl (stereo not drawn)
→ -24%	-1%	-7%	7%	?	-9%[10 µM]	-2%
COCCNC(=O)c1onc(CCl)c1C(=O)OC
→ -2%	0%	-5%	-8%	6%	-34%	-5%
O=c1cc(O)c2sc3nc(-c4cccnc4)cc(C(F)(F)F)c3c2[nH]1
→ -12%	-9%	-10%	-7%	-8%	·	-1%

Going on with the list.
SMILES	Tau fluor cs	Tau fibril FP	RECQ1 helicase	TRb SRC2 PPI	Tau ThT inhib	HTT ATP protect	TR SRC2 fluor cs
Cc1ccc(OCC(=O)NNC(=O)CSc2ncc(C#N)c(N)n2)cc1	-4%	-5%	-6%	4%	-7%	16%[10 µM]	-1%
CC1=C(C(=O)Nc2ccccn2)C(c2cccnc2)n2nnnc2N1 (stereo not drawn)	-13%	2%	0%	-1%	?	-6%	-1%
O=C(O)c1ccc(N2C(=O)CC(N3CCC(c4nc5ccccc5[nH]4)CC3)C2=O)cc1 (stereo not drawn)	7%	11%	-2%	2%	-8%	-40%[inhibitor]	-2%
CCn1c(C)nc2cc(C(=O)N/N=C(\C)c3ccc(N4CCOCC4)cc3)ccc21	8%	4%	0%	7%	?	3%[10 µM]	6%
COc1ccc(C(=O)NC(=S)Nc2ccc3c4c(cccc24)CC3)cc1OC	-19%	-15%	-6%	-2%	-12%	7%[10 µM]	-1%
Cc1sc2ncn(CC(=O)NCCCC(=O)N3CCN(c4ncccn4)CC3)c(=O)c2c1C	-3%	5%	i	-6%	-3%	-19%	0%
Cc1ccccc1S(=O)(=O)Nc1nc2ccccc2nc1Cl	-3%	1%	-7%	7%	0%	-28%	0%
O=C(/C=C/c1c(Cl)cccc1Cl)NCc1ccco1	-3%	8%	-3%	-1%	-7%	-4%[10 µM]	-9%
CC(C)C(=O)c1cn(CC(=O)NCc2ccco2)c2ccccc12	1%	0%	-10%	-3%	0%	5%[10 µM]	0%
COc1cccc(-c2nc(-c3ccccn3)no2)c1OC	-6%	0%	-12%	-8%	?	-80%[inhibitor][0.074 µM]	-5%
CC(C)CNC(=O)CSc1nc(-c2cccs2)cc(C(F)(F)F)n1	3%	-1%	i	2%	-4%	12%[10 µM]	1%
CCOC(=O)/C(=N/O)C1=NC(C)(C)Cc2cc(C)c(C)cc21	-8%	-2%	-8%	5%	-11%	-2%[10 µM]	-1%
COc1ccc(/C=C2\N=C(C)N(c3ccc4ccccc4c3)C2=O)cc1OC	-11%	-6%	4%	-3%	-14%	·	-4%
O=C(O)c1cccnc1SCC(=O)N1CCCc2ccccc21	-11%	2%	17%	6%	?	-8%[10 µM]	-2%
O=C(Nc1nc(-c2ccccc2)cs1)c1ccc(=O)[nH]c1	-14%	10%	-5%	-2%	?	-68%[inhibitor]	3%
c1ccc2[nH]c(NC3=NCCC3)nc2c1	8%	7%	-3%	-4%	6%	-14%	1%
CCc1nc(N2CCN(C(=O)c3ccco3)CC2)c2c3c(sc2n1)CCCC3	-7%	3%	-10%	-7%	-18%	-26%	-5%
Cc1cccc(C)c1NC(=O)Cn1nc(-c2ccccc2)nc1-c1ccccc1	-16%	-8%	4%	2%	-16%	-26%[10 µM]	-1%

Part of the list above, with values under each structure:
The line under a structure holds: Tau fluor cs, Tau fibril FP, RECQ1 helicase, TRb SRC2 PPI, Tau ThT inhib, HTT ATP protect, TR SRC2 fluor cs
Cc1ccccc1S(=O)(=O)Nc1nc2ccccc2nc1Cl
→ -3%, 1%, -7%, 7%, 0%, -28%, 0%
O=C(/C=C/c1c(Cl)cccc1Cl)NCc1ccco1
→ -3%, 8%, -3%, -1%, -7%, -4%[10 µM], -9%
CC(C)C(=O)c1cn(CC(=O)NCc2ccco2)c2ccccc12
→ 1%, 0%, -10%, -3%, 0%, 5%[10 µM], 0%
COc1cccc(-c2nc(-c3ccccn3)no2)c1OC
→ -6%, 0%, -12%, -8%, ?, -80%[inhibitor][0.074 µM], -5%
